# Screens as filed in PubChem BioAssay.
# Anthrax LT inh: anthrax lethal toxin internalization inhibition. Cells, anthrax lethal toxin internalization, FRET ratio (460/530). Potency, µM (top dose mostly 40 µM), for inactives: at the top dose activity change, negative = inhibition, actives largely listed as inhibitors. 0.67% of 70,000 active. AID 912; active = well fitted falling ratio curve with the 530 nm signal flat; inconclusive = other ratio curves, or a change in one channel alone; inactive = flat curves in the ratio and both channels; the % refers to the ratio; also: % is scaled to controls: 0 for no effect and ±100 for the full control effect; nearly all actives have a fitted effect of over 50% in size; tested in ME-180 cells; beta-lactamase reporter
# Prx2 Sm inh: blocks S. mansoni peroxiredoxin 2 enzymatic activity; S. mansoni Prx2 activity coupled to TGR/GSH (TGR is thioredoxin glutathione reductase), NADPH fluorescence loss, qHTS; some inactives read as strong as hits; Potency, µM; 0.07% of 65,000 active; AID 448; active means full or partial inhibition curve with a strong effect at the top dose; inconclusive means weaker partial or single-point curve; inactive means no accepted curve; also: series up to 57 µM; many of its hits are not listed in these tables
#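 Prx2 inhibition was measured as reduced NADPH consumption when electrons flowed from NADPH through TGR and glutathione to Prx2 and H2O2. Plates were read kinetically over 8 min; enzyme reagents were held at 4 deg C during dispensing.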
# * = called active by the depositor; ? = inconclusive; . = no result given; & = joins results of further samples; [ ] = remark or other dose. Potency is read from the fitted curve at half-maximal effect. Not all compounds are listed; rates above refer to the full screens.
# A first look:
canonical_smiles | Prx2 Sm inh | Anthrax LT inh
COc1cc(-c2nnc3sc(Cc4ccc(Cl)cc4)nn23)cc(OC)c1OC | >57 | 5%
c1ncc(CC2CCNCC2)[nH]1 | >57 | -1%
Cc1ccc2nc(-c3ccc(NC(=O)CN4CCN(C(=O)c5ccco5)CC4)cc3)sc2c1 | . | -10%

# Main list, from the first entry:
canonical_smiles | Prx2 Sm inh | Anthrax LT inh
COc1cc(-c2nnc3sc(Cc4ccc(Cl)cc4)nn23)cc(OC)c1OC | >57 | 5%
c1ncc(CC2CCNCC2)[nH]1 | >57 | -1%
Cc1ccc2nc(-c3ccc(NC(=O)CN4CCN(C(=O)c5ccco5)CC4)cc3)sc2c1 | . | -10%
Cc1cc(C)c2cc(CN(CCO)C(=O)Nc3ccc(F)cc3)c(=O)[nH]c2c1 | >57 | 6%
O=S(=O)(NCCc1ccncc1)c1cc(Br)ccc1F | >57 | 7%
Cc1cc(C(C#N)c2ccccc2)n2ncnc2n1 (stereo not given) | >57 | -27%
Nc1ccc(S(=O)(=O)c2ccc(NCN3C(=O)NC(=O)C(=O)C3=O)cc2)cc1 | >57 | -8%[8 µM]
CN(C)c1ccc(-c2cncnc2NCCc2cnc[nH]2)cc1 | >57 | -13%
Cn1nc(C(=O)Nc2ccc(S(=O)(=O)N3CCCC3)cc2)ccc1=O | >57 | 15%
Cc1ccc(CNc2ccc3c(c2)OCO3)c(C)c1 | >57 | ?
O=C(Nc1ccccc1)N(CCN1CCOCC1)Cc1ccccc1F | >57 | 0%
CCS(=O)(=O)N1CCCC(C(=O)NCC2CCCO2)C1 (stereo not given) | >57 | 0%
Cc1ccc(NC(=O)C(C)N2C(=O)c3ccccc3C2=O)cc1 (stereo not given) | >57 | -13%
CSc1nnc2n(CCc3ccccc3)c(=O)c3c4c(sc3n12)CCCC4 | >57 | 6%
NC(=O)CN(c1ccccc1)C1SC(=O)N(Cc2ccccc2)C1=O (stereo not given) | >57 | -11%
Cc1csc(=N)n1CC(=O)N1CCc2ccccc21 | >57 | -13%
CC(=O)Oc1cc2c(C(=O)NCCCN3CCOCC3)c(C)oc2c2ccccc12 | >57 | .
O=C(O)CCC(=O)Nc1ccc(S(=O)(=O)Nc2nccs2)cc1 | >57 | -1%[3.58 µM]
CCc1cccc(Nc2cc(C)nc3ncnn23)c1 | >57 | 0%
CC1(C)CC(=O)C(C=NCCN2CCN(C(=O)Cc3ccccc3)CC2)=C(O)C1 | . | 14%
O=C(c1ccccc1)c1ccc(C(=O)O)c(C(=O)O)c1 | . | 2%
CCCCCn1c(N)c(C(=O)NCCN2CCOCC2)c2nc3ccccc3nc21 | >57 | ?
CCn1cc(C(=O)NCc2ccco2)c(=O)c2cc(S(=O)(=O)N3CC(C)CC(C)C3)ccc21 (stereo not given) | >57 | ?
c1ccc2c(c1)nnn1c3ccccc3nc21 | . | 7%
O=C(NCCc1c[nH]c2ccccc12)C1Cc2ccccc2CN1C(=O)c1ccco1 (stereo not given) | >57 | -2%
CCC(C)(C)NC(=O)CN(C(=O)CNS(=O)(=O)c1ccc(C)cc1)c1ccc2c(c1)OCCO2 | >57 | -11%
C=CCn1c(O)c(CN2CCN(Cc3ccccc3)CC2)c(C)c(C#N)c1=O | >57 | ?
CN(C)CCCNc1c2c(c(C#N)c3nc4ccccc4n13)CCC2 | >57 | 2%
Cn1c(=O)c2c(nc(N3CCN(Cc4ccccc4)CC3)n2CCSc2ncccn2)n(C)c1=O | >57 | 20%
CC(=O)Nc1c(C)cc(OCC(=O)O)cc1C | >57 | -1%[8 µM]
CC1Cc2ccccc2N1C(=O)CSc1nnc(NC(=O)Cc2cccs2)s1 (stereo not given) | >57 | ?
COc1cccc(C(c2nnnn2C(C)(C)C)N2CCN(C3CCCCC3)CC2)c1OC (stereo not given) | >57 | -28%
CC(NC(=O)C(c1ccccc1)c1ccccc1)C(=O)O (stereo not given) | >57 | 6%
O=C(NC1CCCC1)c1ccc2nc[nH]c2c1 | >57 | 6%
COc1ccc(Cl)cc1N=Nc1ncc[nH]1 | >57 | -3%
Cc1c(C(C)NC(=O)Nc2ccc(F)cc2F)cnn1C (stereo not given) | >57 | -5%
NC(=O)Nc1ccc(Oc2c(F)c(F)c(F)c(F)c2F)cc1 | >57 | -7%
O=c1[nH]c2cc3c(cc2cc1C(c1nnnn1CC1CCCO1)N1CCCC1)OCO3 (stereo not given) | >57 | -4%
CN1C(=O)N(C)C(=O)C(CCc2ccccn2)(CCc2ccccn2)C1=O | >57 | -9%
COCCCn1c(C(C)C)nc2oc3cc(OC)ccc3c(=O)c2c1=O | >57 | .
O=C(c1n[nH]c2ccccc12)N1CCN(S(=O)(=O)c2ccc3ccccc3c2)CC1 | >57 | -15%
O=C(c1ccncc1)c1ccc(N2CCN(C3CC(=O)N(Cc4ccccc4)C3=O)CC2)cc1 (stereo not given) | >57 | .
O=C(CN1C(=O)NC2(CCCCCCC2)C1=O)NC(=O)NCc1ccco1 | >57 | 8%
O=C(CCCCn1c(=O)c2ccccc2n(CC(=O)Nc2ccccc2)c1=O)NCc1ccco1 | >57 | 9%
FC(F)(F)c1nnc2sc(-c3cccs3)nn12 | >57 | ?
CCn1nc(NC(=O)c2ccncc2)c2cc3cc(C)ccc3nc21 | >57 | ?
CC1(C(=O)NC2CCCCCCC2)CCC(=O)N1Cc1ccco1 (stereo not given) | >57 | ?
Cc1ccc2c(c1)C(=O)[C@]1(O)CCN(c3ccccc3)C1=N2 | . | ?
CCc1ccccc1NC1=NCC(=O)N1Cc1ccc2c(c1)OCO2 | >57 | ?
CCOC(=O)COc1ccc(C(=O)c2ccccc2)c(O)c1 | >57 | -7%
Cc1nc2n(c(=O)c1CCN1CCC(c3noc4cc(F)ccc34)CC1)CCCC2 | >57&>57 | -3%[3.58 µM]
Cc1nn(-c2ccccc2)c(C)c1/C=N/N1CCN(Cc2ccccc2)CC1 | . | ?
CCCCCCCCCCCC[N+](C)(C)CCOc1ccccc1 | . | 14%
COc1ccc2[nH]cc(CCNc3ncncc3-c3ccccc3Cl)c2c1 | >57 | ?
O=C(CSc1nc2sc3c(c2c(=O)[nH]1)CCCC3)NCCO | >57 | 16%
COc1ccc2[nH]cc(CCNc3cc(-c4cccc(C#N)c4)ncn3)c2c1 | >57 | -22%
COC(=O)C1=C(C)NC(C)=C([N+](=O)[O-])[C@@H]1c1ccccc1C(F)(F)F | ? | ?
O=C1c2cccc([N+](=O)[O-])c2C(=O)N1c1ncn[nH]1 | >57 | -6%[8 µM]
Cn1nc(-c2ccc(Cl)cc2)c2cc(C(=O)NCC3CCCO3)sc21 (stereo not given) | >57 | ?
CCOC(=O)Cc1csc(-n2sc3ccccc3c2=O)n1 | >57 | 3.2µM*

# Additional entries follow.
canonical_smiles | Prx2 Sm inh | Anthrax LT inh
CCN(CC(=O)Nc1ccc(OC)c(OC)c1)S(=O)(=O)c1ccc(C)cc1 | >57 | -5%
O=C(NC1CCCC1)C(c1ccc(N2CCOCC2)cc1)N(Cc1ccccc1)C(=O)c1ccco1 (stereo not given) | >57 | -3%
Cc1cccc(-n2c(SCC(=O)NCc3ccco3)nc3ccccc3c2=O)c1 | >57 | 24%
CCOC(=O)C1CCCN(S(=O)(=O)c2cc(OCC(N)=O)c(C)cc2Cl)C1 (stereo not given) | >57 | 4%
Cn1c(O)c(C=NCCCCCC(=O)O)c(=O)n(C)c1=O | . | 1%
O=C1CCCCCN1CSc1nc2ccccc2s1 | >57 | -25%
Cn1nnnc1SCc1nnc(-c2ccc(Cl)cc2)o1 | >57 | 13%
C=C[C@@H]1CN2CC[C@H]1C[C@H]2[C@H](O)c1ccnc2ccccc12 | >57 | ?
CC1CN(Cc2nc3c(c(=O)n(C)c(=O)n3C)n2CC(O)CO)CC(C)O1 (stereo not given) | >57 | -13%
COc1ccc(-n2c(C)cc(=O)c3c2CC(C)(C)CC3=O)cc1 | >57 | -4%
Cc1ccc(-n2nnnc2SCC(=O)Nc2cccc(NC(=O)c3ccco3)c2)cc1C | >57 | ?
O=C(O)C12CC3(C(=O)O)CC(C(=O)O)(CC(C(=O)O)(C1)C3=O)C2=O | >57 | -1%[8 µM]
COC(=O)Cn1c(CN(Cc2ccccc2)Cc2ccccc2)nc2c1c(=O)[nH]c(=O)n2C | >57 | -17%
c1cncc(CNc2nc(-c3ccoc3)nc3ccccc23)c1 | . | -3%
Cn1c(C(=O)N2CCN(C(=O)c3ccco3)CC2)cc2c(=O)n(C)c3ccccc3c21 | >57 | 12%
CCOc1ccccc1NC(=O)c1cc(S(=O)(=O)N2CCC3(CC2)OCCO3)ccc1F | >57 | -5%
O=C1c2ccccc2C(=O)N1CCc1nc2ccccc2c(=O)n1Cc1ccco1 | >57 | ?
Cn1c(=O)oc2cc(S(=O)(=O)Nc3ccc(Cl)cc3F)ccc21 | >57 | -6%
CCOC(=O)C1CCCN(S(=O)(=O)c2ccc(C)cc2)C1 (stereo not given) | >57 | 6%
CC(C)(O)c1cn(-c2nonc2N)nn1 | >57 | 10%
Cc1ccc(Cn2nnc3c(=O)n(CC(=O)N4CCCc5ccccc54)cnc32)cc1 | >57 | 0%
CC(C)Sc1nc2sc3c(c2c2nnc(SCC(=O)NCc4ccco4)n12)CCCC3 | >57 | .
COc1cccc(OCC(=O)Nc2c(C(=O)Nc3ccc(OC)cc3OC)oc3ccccc23)c1 | >57 | .
COc1ccccc1CNc1nc(-c2ccc(N(C)C)cc2)nc2ccccc12 | >57 | ?
CCCCOC(=O)c1ccc(O)cc1 | >57 | ?
COc1cc(NC(=O)c2ccc(NS(=O)(=O)c3c(C)noc3C)cc2)cc(OC)c1 | . | 2%
CS(=O)(=O)N(CC(=O)N1CCN(c2ccccc2F)CC1)c1ccc2c(c1)OCCO2 | >57 | 3%
CN1CCCC2(CCN(C(=O)Oc3ccccc3)CC2)C1 | >57 | 9%
O=C1c2ccccc2[C@@H]([C@@H]2c3ccccc3C(=O)c3cc(Br)ccc32)c2ccc(Br)cc21 | >57 | -14%[8 µM]
CN(C)S(=O)(=O)c1ccc2c(c1)C(CC(=O)O)OC2=O (stereo not given) | >57 | 13%
COc1ccc(C(c2sc3nc(C)nn3c2O)N2CCC(O)CC2)cc1OC (stereo not given) | >57 | 10%
CC(C)C1Nc2ccc(S(N)(=O)=O)cc2C2C=CCC21 (stereo not given) | >57 | ?
CCOc1ccc(OCC)c(S(=O)(=O)N2CCCCC2)c1 | >57 | -10%
COc1ccccc1CN1CCCC2(CCN(C(=O)c3cnccn3)CC2)C1 | >57 | ?
COCCSc1nnc(NC(=O)CSc2ccccc2)s1 | >57 | -1%
CCCCCCCC(=O)O[C@H](CC(=O)O)C[N+](C)(C)C | >57 | -13%
CCOC(=O)C1CCN(C(c2cc3ccc(C)c(C)c3[nH]c2=O)c2nnnn2C2CCCCC2)CC1 (stereo not given) | >57 | 4%
N#Cc1ccc(NC(=O)C2CC(c3ccc(F)cc3)=NO2)cc1 (stereo not given) | >57 | 8%
O=C(NC1CCN(C(=O)N2CCOCC2)CC1)c1ccccc1 | >57 | -4%
COc1ccccc1N1CCSC1C(N)=O (stereo not given) | >57 | 9%
COc1ccc(NC(=O)NC2(C(=O)N3CCCCCC3)CCCCC2)cc1 | >57 | 6%
CC(C)C(=O)N1CCN(c2ccccc2N)CC1 | >57 | -2%
CCCCN1c2ccccc2N(CCCO)c2cc(C)nnc21 | >57 | 16%
COC(=O)c1c(NS(=O)(=O)c2cccs2)sc2c1CCCC2 | >57 | -5%
COc1cc2c(cc1OC)C(=O)Cc1ccc3c(c1CN(C)CC2)OCO3 | >57 | -7%
Cc1ccc(OCCN2CCN(C(=O)CCC(=O)Nc3nnc(C(C)C)s3)CC2)cc1 | >57 | -2%
FC(F)(F)c1ccc2c(c1)NP(=S)(N1CCOCC1)c1nccn1-2 (stereo not given) | >57 | -29%
CCN1C(=O)CSc2ccc(C(=O)NCc3ccco3)cc21 | >57 | -22%
O=C1CC(C(=O)Nc2nccs2)C(c2ccccc2)O1 (stereo not given) | . | 13%
COCCN(C(C)=O)c1nnc(-c2ccccn2)s1 | >57 | -1%
Cc1nnc(SCCC(=O)Nc2nc(-c3ccccc3)ns2)s1 | >57 | -9%
Cc1cc(O)c(C(C)C)cc1NC(=O)Nc1cccc2ccccc12 | >57 | ?
COc1ccc2c(c1)c(=O)oc1cc(OCC(=O)NC3CC3)ccc12 | >57 | .
S=C(NC1CCCCC1)N1CCC([C@H]2C=NC=N2)CC1 | >57 | -8%[3.58 µM]
COc1ccc(Nc2nc(N)nc(CN3CCOCC3)n2)cc1 | >57 | -5%
COc1ccccc1C1=NOC(Cn2c(=O)c3c(ncn3C)n(C)c2=O)C1 (stereo not given) | >57 | 0%
COc1ccc(C2CC(=O)N3CN(c4ccc(C)c(Cl)c4)CSC3=C2C#N)cc1 (stereo not given) | . | -16%
NS(=O)(=O)c1ccc(NC(=O)CCc2ccccc2)cc1 | >57 | -14%
Oc1ccc2c3c1O[C@H]1c4[nH]c5c(c4C[C@@]4(O)[C@@H](C2)N(CC2CC2)CC[C@]314)C[C@]1(O)[C@H]2Cc3ccc(O)c4c3[C@@]1(CCN2CC1CC1)[C@@H]5O4 | >57 | ?
Cc1nn(Cc2ccccc2)c(C)c1CCC(=O)O | >57 | -6%
CCCCNC(=O)C1CC(=O)N(CCC(C)C)C1 (stereo not given) | >57 | -6%
CCOC(=O)C(C)n1cnc2c(cnn2-c2ccc(Cl)cc2)c1=O (stereo not given) | >57 | 5%
